Screening results as filed in PubChem BioAssay.
AmpC inh no det = AmpC beta-lactamase inhibition, detergent-free assay; P00811; AmpC nitrocefin hydrolysis, absorbance 480 nm, no detergent; potencies from a single point are estimates; Potency, µM (titrated, usually from 28.7 µM), inactives show top-dose activity change, negative = inhibition; actives 1.8% (n = 71,000); AID 585; active = falling curve, for most hits resting on a single point; inconclusive = weak or doubtful change; inactive = flat or rising curve; note: % of control where 0% means no effect; about half of the hits show no inhibition at the top dose; a quarter of the inactives give rising signals
Target sequence (P00811 whole entry, looked up): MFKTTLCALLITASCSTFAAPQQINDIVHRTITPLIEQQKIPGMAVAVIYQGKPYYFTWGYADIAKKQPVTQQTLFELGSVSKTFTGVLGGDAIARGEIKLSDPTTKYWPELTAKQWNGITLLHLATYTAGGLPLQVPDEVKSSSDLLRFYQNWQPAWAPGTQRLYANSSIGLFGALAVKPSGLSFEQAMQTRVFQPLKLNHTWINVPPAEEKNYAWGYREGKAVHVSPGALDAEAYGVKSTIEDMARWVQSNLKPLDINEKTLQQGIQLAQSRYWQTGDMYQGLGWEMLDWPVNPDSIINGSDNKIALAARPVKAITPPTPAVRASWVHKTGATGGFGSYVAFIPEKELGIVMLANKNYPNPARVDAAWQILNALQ
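Enzyme, pH 7.0 phosphate. Compound titrations were pre-incubated with AmpC for 15 min at room temperature before nitrocefin (stock 800 uM) addition; product formation was recorded at 480 nm every 20 s for 4 min.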
The depositor's hits bear a star; & = joins results of further samples; [ ] = another dose, or the depositor's remark. Potency is the fitted concentration of half-maximal effect. These rows are one share of the data, so the mix of outcomes need not match the whole.

SMILES	AmpC inh no det
Cc1cccc(C)c1N1C(=O)c2ccccc2C1=O	-6%
CCn1c(SCC(=O)Nc2cccc(NC(=O)c3cccs3)c2)nnc1-c1ccncc1	17%
O=C(NC1CCCCC1)N1CCC(c2nc3ccccc3[nH]2)CC1	-5%
O=C(CN1CCOCC1)Nc1ccc(S(=O)(=O)N2CCCCCC2)cc1	19%
CC(C)[C@H](NC(=O)NCc1ccco1)C(=O)O	-2%
Cn1cc(Cl)c(C(=O)N(Cc2ccccc2)c2ccccn2)n1	4µM*[single pt active]
CCSc1nnc(NC(=O)CSc2nnc(Cc3cccn3C)n2-c2ccc(C)cc2)s1	45%
CCOC(=O)C1CCCN(Cc2ccc3c(c2)OCO3)C1 (centres undefined)	-8%
C=CCn1c(O)c(C(CC)=NCCN2CCOCC2)c(=O)[nH]c1=O	23%
O=C(O)CC1Sc2ccccc2NC1=O (centres undefined)	-6%
Cc1nn(Cc2ccc(C(=O)NC3CCCCC3)o2)c(C)c1Br	94%
CN(c1ccccc1)S(=O)(=O)c1cc(C(=O)N2CCN(c3ccccn3)CC2)ccc1Cl	82%
COc1ccc(NC(=O)Cn2nnc(-c3ccccc3F)n2)cc1	-11%
COC(=O)C1=C(C(=O)c2ccc(C)cc2)C(c2ccc(O)c(OC)c2)n2nnnc2N1 (centres undefined)	-16%
O=c1nc(C(F)(F)F)nc2ccccn12	-4%

Rewritten as labelled records: 4 of the compounds above
SMILES: CCn1c(SCC(=O)Nc2cccc(NC(=O)c3cccs3)c2)nnc1-c1ccncc1
  AmpC inh no det: 17%

SMILES: O=C(NC1CCCCC1)N1CCC(c2nc3ccccc3[nH]2)CC1
  AmpC inh no det: -5%

SMILES: O=C(CN1CCOCC1)Nc1ccc(S(=O)(=O)N2CCCCCC2)cc1
  AmpC inh no det: 19%

SMILES: CC(C)[C@H](NC(=O)NCc1ccco1)C(=O)O
  AmpC inh no det: -2%

(next part)
SMILES	AmpC inh no det
O=C(NCc1cc(F)cc2c1OCCO2)[C@H]1C[C@@H]1[C@H](NP(=O)(c1ccccc1)c1ccccc1)c1ccccc1	82%
Cc1ccc(Nc2oc(C)nc2C#N)cc1	-10%
Cc1ccc(CNC(=O)CN(C)S(=O)(=O)c2cccc3cccnc23)cc1	31%
O=C(Cn1nnc(-c2ccncc2)n1)N1CCc2ccccc21	-3%
CCOCCc1nnc(NC(=O)c2ccc(OC)c(OC)c2)s1	19%
CCOC(=O)C1CCCN(C(=O)c2ccc(OCC)cc2)C1 (centres undefined)	21%
O=C(CCCn1nnc(-c2cccnc2)n1)c1ccc(F)cc1	-1%
CCOc1ccc(N2C(=O)CC(N3CCN(c4ccc(C(=O)c5ccncc5)cc4)CC3)C2=O)cc1 (centres undefined)	84%
Cc1ccc(S(=O)(=O)N(Cc2ccc(F)cc2)Cc2ccco2)cc1	-7%
Cc1cc2c(cc1C)NC(c1cccnc1)C1=C(CC(C)(C)CC1=O)N2 (centres undefined)	16%
CC(C)c1nc(N2CCCC2)c(C#N)c2c1CCCC2	-6%
O=C(NCc1ccccn1)c1cc2ccccn2n1	-1%
NC(=O)CC(O)c1cccc(Cl)c1 (centres undefined)	-2%
Cc1nc2nc[nH]n2c(=O)c1NC(=O)c1c(-c2ccccc2Cl)noc1C	-1%
COc1ccc(S(=O)(=O)N2CCCN(CC(=O)Nc3cc(NC(C)=O)ccc3OC)CC2)cc1	123%

Some values from the entries so far:
For AmpC inh no det, O=C(NCc1ccccn1)c1cc2ccccn2n1 has -1%
For AmpC inh no det, Cc1ccc(Nc2oc(C)nc2C#N)cc1 has -10%
For AmpC inh no det, O=C(CCCn1nnc(-c2cccnc2)n1)c1ccc(F)cc1 has -1%
For AmpC inh no det, CCOCCc1nnc(NC(=O)c2ccc(OC)c(OC)c2)s1 has 19%

(cont.)
SMILES	AmpC inh no det
COC(=O)[C@@]1(Cc2ccccc2)[C@H]2c3cc(C(=O)N(C)C)n(CCO)c3C[C@H]2CN1C(=O)c1ccccc1	183%
O=C1Nc2cccnc2Sc2ccccc21	-15%
COc1cc(OC)nc(NC(=O)COC(=O)C2CCCCC2)n1	4%
CCOC(=O)C1=C(C)NC(=O)NC1/C(C)=C/c1ccccc1 (centres undefined)	5%
COc1ccc(-c2noc(CCC(=O)Nc3cc(Cl)c(OC)cc3OC)n2)cc1	45%
Cc1csc(SCC(=O)N2CCCC2)n1	-1%
N#CCCSCc1ccc(C(=O)O)o1	-8%
COc1ccc(Cl)cc1S(=O)(=O)N1CCN(C)CC1	5%
O=C1C2CCCN2C(c2ccccc2)N1c1ccc(Cl)cc1 (centres undefined)	26%
CCCn1c(C)c(C(=O)c2cccc3ccccc23)c2ccccc21	13%
COc1ccc(S(=O)(=O)Nc2cc(OC)c(NC(=O)c3ccco3)cc2OC)cc1	53%
COC(=O)C1CCN(C(=O)NC2CCCCC2)CC1	6%
O=C(CN1C(=O)c2ccccc2S1(=O)=O)N1CCN(c2ccccc2F)CC1	14%
FC(F)(F)c1nc(SCc2ccc(Cl)cc2)n[nH]1	15%[5.75 µM]
O=C(Nc1ccc2c(c1)OCCO2)c1c(F)cccc1F	-15%

Random excerpt: 5 compounds from above
SMILES	AmpC inh no det
COc1cc(OC)nc(NC(=O)COC(=O)C2CCCCC2)n1	4%
Cc1csc(SCC(=O)N2CCCC2)n1	-1%
O=C(Nc1ccc2c(c1)OCCO2)c1c(F)cccc1F	-15%
COC(=O)[C@@]1(Cc2ccccc2)[C@H]2c3cc(C(=O)N(C)C)n(CCO)c3C[C@H]2CN1C(=O)c1ccccc1	183%
O=C1C2CCCN2C(c2ccccc2)N1c1ccc(Cl)cc1 (centres undefined)	26%

Later entries.
SMILES	AmpC inh no det
O=C(COc1cc(Cl)ccc1Cl)Nc1nnc(CC(=O)N2CCOCC2)s1	-4%
CCn1c(SCC(=O)N2CCN(c3ccc(F)cc3)CC2)nnc1-c1ccncc1	35%
COC(=O)CSc1nc2c(c(=O)n(C)c(=O)n2C)n1CCCc1ccccc1	102%
COc1ccc(-n2c(=O)cc(N3CCN(c4ccccc4F)CC3)[nH]c2=O)cc1	10%
CCN(CC)S(=O)(=O)N1CCC(C(=O)NC2CCCc3ccccc32)CC1 (centres undefined)	55%
CC(=O)n1nc(-c2cccnc2)nc1N	8%
COc1ccc(Nc2nc(N)nc(CSc3n[nH]c(-c4ccccc4)n3)n2)cc1	-11%
O=C(Nc1ccc(NC(=O)c2ccco2)nc1)c1ccccn1	-6%
CCCCOC(=O)C1=C(C)Nc2ncnn2C1c1cccc(OC)c1OC (centres undefined)	52%
Oc1cc2c(cc1O)[C@H]1c3ccccc3CN[C@@H]1CC2	-4%
Cc1cc(C)c2c(N)c(C(=O)N3CCCCCC3)sc2n1	30%
COc1ccc(C(CNC(=O)c2ccc(-n3cnnn3)cc2)N2CCOCC2)cc1 (centres undefined)	10%
COC(=O)[C@@H]1C[C@H]1[C@@H](NC(=O)Oc1ccc(F)cc1)c1ccccc1	33%
COC(=O)c1cc(OC)c(OC)c(OC)c1N	19%
COCC(C)NC(=O)c1noc2c1CCc1cc(OC)ccc1-2 (centres undefined)	44%
C=CCn1c(NC(=O)c2ccccc2Cl)c(C#N)c2nc3ccccc3nc21	-5%
CCOCC(=O)Nc1nc2ccc(C)cc2s1	10%
Cn1nnnc1SCC(=O)Nc1nc(-c2ccccc2)c(-c2ccccc2)o1	-2%
O=C(c1ccco1)[C@@H]1[C@@H]2C(=O)N(c3ccc(Br)cc3)C(=O)[C@@H]2C2c3ccccc3C=CN21 (some centres undefined)	13%
COc1ccccc1C1C(C(=O)c2cc3ccccc3o2)=C(O)C(=O)N1CCN(C)C (centres undefined)	21%
Cn1c(=O)n(CCc2ccccc2)c(=O)c2c1nc1n2CCN1Cc1ccco1	60%
CC(=O)N(c1ccc2oc(=O)sc2c1)S(=O)(=O)c1ccccc1	4%
CCCn1nnnc1SCC(=O)NCc1cccs1	-5%
CCOc1ccc(-c2ncncc2-c2ccc(OC)cc2)c(O)c1	-9%
Cc1c(N(C(=O)Nc2ccccc2)C2=NCC(C)S2)c(=O)n(-c2ccccc2)n1C (centres undefined)	30%
CC(C)(C)NC[C@H](O)COc1cccc2[nH]c(=O)[nH]c12	41%&-6%
COC(=O)c1ccc(C2CC(=O)Nc3cc(OC)c(OC)cc32)cc1 (centres undefined)	24%
Cc1cc(C)c(NC2=CC(=O)CC(C)(C)C2)c(C#N)c1	8%
O=C(CSc1nnc(C2COc3ccccc3O2)o1)N1CCOCC1 (centres undefined)	5%
COCCCn1nnnc1SCC(=O)Nc1nc(C)c(C)s1	14%
O=C(CSCc1ccccc1)Nc1ccc2c(c1)OCO2	-17%
Cn1c(SCC(=O)N(C2CCCCC2)C2CCCCC2)nnc1-c1cccs1	48%
COc1ccc(-c2nc3cnc(OC)nc3n(CCc3ccccc3)c2=O)cc1	-1%
O=C(OCn1nnc2ccccc2c1=O)c1ccc2ccccc2n1	2%
COCCNC(=O)c1ccccc1NC(=O)COc1ccccc1	2%
Cc1ccc(C)c(N2CCN(C(=O)C3CCN(S(=O)(=O)c4c(C)noc4C)CC3)CC2)c1	104%
CCOC(=O)c1oc2ccccc2c1NC(=O)C1CCCCC1	1%
COc1ccc2oc(C)c(NC(C)=O)c2c1	-9%
COc1ccc(C(=O)c2oc3ccc(Br)cc3c2NC(C)=O)cc1	-4%
CC1CCc2c(sc3ncnc(SCC(=O)N4CCN(C(=O)c5ccco5)CC4)c23)C1 (centres undefined)	33%
O=C(CN1CCC(n2nnc3cc(F)ccc32)CC1)NC1CCCCC1	56%
CCOc1c(Br)cc(C2NS(=O)(=O)N=C3CCCCCN32)cc1OC (centres undefined)	10%
COC(=O)CCN(C(=O)c1ccc2c(c1)OCO2)c1ccccn1	6%
CCn1cnc2cc(NCc3nc4ccccc4n3C)ccc21	-1%
Cc1onc(-c2ccccc2Cl)c1C(=O)Nc1ccc(OCC(=O)N2CCOCC2)cc1	64%
O=C(Nc1ccc2oc(=O)ccc2c1)c1cccnc1	-8%
CCCCC(c1nnnn1CS(=O)(=O)c1ccc(C)cc1)N1CCN(c2ccccc2)CC1 (centres undefined)	13%
O=C(c1nc2n(n1)C(c1ccc(Cl)cc1)C=C(c1ccccc1)N2)N1CCOCC1 (centres undefined)	79%
COc1cccc2cc(C(=O)NC3CC(C)(C)NC(C)(C)C3)c(=O)oc12	-6%
COc1ccc(C(NC(=O)C(C)(C)C)NC(=O)C(C)(C)C)cc1	-2%
CCN1CCN(C(=O)Nc2cccc(C(F)(F)F)c2)CC1	0%
CCC1CCCCN1CCCNC(=O)Cn1nc(-c2ccc(C)cc2)ccc1=O (centres undefined)	0%
O=C(c1cnccn1)N1CCC2(CC1)CCN(c1ccncc1)CC2	11%
CC(=O)NCCNc1ncncc1-c1ccccc1C(F)(F)F	21%
CCOC(=O)C1CCCN(c2nc3ccccc3nc2C(C#N)C(=O)NCc2ccccc2)C1 (centres undefined)	31%
CCCCn1c(SCC(=O)c2ccc(OC)cc2OC)nc2cc(S(N)(=O)=O)ccc21	46%
CCNC(=O)c1sc(-c2ccccc2)nc1C	-5%
COc1ccccc1N(CC(=O)Nc1ccc2c(c1)OCCO2)S(C)(=O)=O	15%
COc1cc(-c2nnc(-c3cccs3)o2)cc(OC)c1OC	45%
CC(=O)c1c(C)[nH]c(C(=O)OCC(=O)Nc2cc(C(F)(F)F)ccc2N2CCOCC2)c1C	79%

Four compounds already listed, arranged by count of non-hydrogen atoms, smallest number first.
SMILES	AmpC inh no det
O=C(Nc1ccc2oc(=O)ccc2c1)c1cccnc1	-8%
CCN1CCN(C(=O)Nc2cccc(C(F)(F)F)c2)CC1	0%
COc1cc(-c2nnc(-c3cccs3)o2)cc(OC)c1OC	45%
COc1ccccc1N(CC(=O)Nc1ccc2c(c1)OCCO2)S(C)(=O)=O	15%

The results go on:
SMILES	AmpC inh no det
Cc1ccc(N)cc1C	6%
c1cc(CNc2ccc3c(c2)OCO3)ccn1	14%
CC(=O)c1oc2ccccc2c1NC(=O)COC(=O)c1ccc(-n2nc(C)cc2C)cc1	34%
CCOc1ccc(S(=O)(=O)Nc2ccccc2C(=O)NCC2CCCO2)cc1 (centres undefined)	14%
Cc1cc(NC(=O)COC(=O)COc2ccc(C(=O)c3ccccc3)cc2)no1	-4%
Cc1noc(C)c1S(=O)(=O)N(CC(=O)N1CCCC1)c1ccc(C(C)C)cc1	66%
O=C(CN1CCN(c2ccc(F)cc2)CC1)N1CCC(Cc2ccccc2)CC1	155%
COc1ccc(Cl)c(N2CCN(CCCNC(=O)Nc3ccc(C)cc3)CC2)c1	30%
COc1cc2cc(C(c3nnnn3C3CCCC3)N(C)C3CCCCC3)c(=O)[nH]c2cc1OC (centres undefined)	174%
CCN1C2=C(C(=O)CCC2)C(c2ccc(O)cc2)C2=C1CCCC2=O	-7%
CNC(=O)[C@@H]1C[C@H]1[C@@H](NC(=O)OCc1ccccc1)c1ccccc1	34%
N#Cc1cccc(NC(=O)CSc2ccccc2)c1	-19%
CCN(CC)CCCNC(=O)C1CCN(C(=O)c2cc3sccc3n2Cc2ccc(F)cc2)CC1	91%
CCCCCNc1c(C(=O)OCC)c(=O)[nH]c2ccccc12	1%
COc1ccccc1NC(=O)Cn1cnc2sc(C(=O)NCc3ccco3)c(C)c2c1=O	13%
O=C1CC(N2CCC(c3nc4ccccc4o3)CC2)C(=O)N1Cc1cccs1 (centres undefined)	120%
COCCn1c(SCc2ccccc2Cl)nc2c1c(=O)[nH]c(=O)n2C	41%
CCCNS(=O)(=O)c1ccc(OCC(=O)N2CCC(C(=O)OCC)CC2)cc1	25%
